# Screening data from PubChem BioAssay.
# HIV Env fusion = HIV envelope-mediated fusion inhibition; AID 651610; 360,000 tested, 1.1% active; HeLa-JRFL Env/CEM21 cell fusion, luciferase; inhibition, % at 12.3 µM;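 active means mean replicate inhibition score of at least 50 and every replicate individually at or above 50; inconclusive means only one of the two criteria met; inactive means mean below 50 and not all replicates reaching 50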;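 further: 0% = plate neutral controls and 100% = maraviroc near 300 nM; one replicate is shown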
# Yeast UUG start = alters start codon recognition fidelity in yeast. AID 602363. S. cerevisiae UUG-firefly luciferase reporter, luminescence/redox ratio. activity score, % at 18.7 µM. 350,000 tested, 0.13% active;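 active means replicate mean at a twofold rise or more, about +100% in these data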;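 further: firefly luciferase made from a UUG start codon reports start codon fidelity; reporter light over untreated wells divided by growth signal over untreated wells; some hits fall short of that in this replicate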
# CSC inhib = blocks cancer stem cells | cancer stem cell-like cells viability, luminescence | inhibition, % at 7.5 µM | 300,000 tested, 1.1% active | AID 2717;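 active means mean at 75% or more and at least half the replicates too; inconclusive means mean and replicates disagree; tested in HMLE shEcad cells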;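 further: 0% = median of negative and 100% = median of positive control wells; the first replicate is given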
# MT1-MMP act inh = MT1-MMP (human) activation inhibition. GFP/RFP ratio change, % at 20 µM. 360,000 tested, 0.061% active. HT1080 RFP-PRO-GFP cells, GFP/RFP ratio fluorescence, overnight; percent of plate control window, DMSO zero. P50281;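 active means GFP/RFP ratio change of at least 30% with cell ATP level not reduced by more than half and red fluorescence within 50% of control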; further: strong numbers were not always called active
#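 Assay system: HT1080 RFP-PRO-GFP cells. Benchmarks: DMSO vehicle wells and RFP-L50D-GFP reporter cell wells. Times: overnight cell settling, then overnight compound exposure, 37 °C, 5% CO2. Compound: 20 µM single dose, 1% DMSO. Read-out basis: GFP/RFP fluorescence ratio.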
# PABP polyA inh = PABP-poly(A) binding inhibition; P11940; PABP-poly(A) RNA binding, fluorescence polarization; inhibition, % at 35 µM; 290,000 tested, 1% active; AID 2014;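 active means 50% or more with normal probe brightness, or confirmed in later tests; inconclusive means above 50% with abnormal brightness, or retests that disagree; inactive means below 50% or failed in later tests; about a fifth of its hits are not listed in these tables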;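 further: calls also rest on retests at 20 µM and on dose response follow-up; controls were probe without protein and protein plus probe with vehicle; some compounds called inactive have numbers as strong as hits; many hits fall short of the cut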
# Target sequence (P11940 whole entry, looked up): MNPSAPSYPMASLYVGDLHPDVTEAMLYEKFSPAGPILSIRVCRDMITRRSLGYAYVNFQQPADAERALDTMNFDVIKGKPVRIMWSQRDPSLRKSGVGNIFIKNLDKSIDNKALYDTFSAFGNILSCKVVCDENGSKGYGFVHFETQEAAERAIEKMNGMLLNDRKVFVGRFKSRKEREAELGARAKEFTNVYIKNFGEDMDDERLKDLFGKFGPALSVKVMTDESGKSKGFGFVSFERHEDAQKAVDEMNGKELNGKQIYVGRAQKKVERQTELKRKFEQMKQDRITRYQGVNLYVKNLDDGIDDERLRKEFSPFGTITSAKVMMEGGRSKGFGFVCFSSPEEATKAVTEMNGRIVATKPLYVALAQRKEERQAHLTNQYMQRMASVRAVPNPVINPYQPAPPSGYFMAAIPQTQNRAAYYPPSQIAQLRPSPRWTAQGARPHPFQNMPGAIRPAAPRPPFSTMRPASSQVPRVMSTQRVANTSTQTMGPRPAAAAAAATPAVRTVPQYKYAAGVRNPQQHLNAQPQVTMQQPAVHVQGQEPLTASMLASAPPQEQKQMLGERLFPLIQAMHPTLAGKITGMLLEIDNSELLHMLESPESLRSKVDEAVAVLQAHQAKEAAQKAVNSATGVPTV
# eIF4H FP inh = inhibitors of RNA binding by human eIF4H; eIF4H fluorescence polarization binding assay; inhibition, % at 35 µM; 290,000 tested, 0.94% active; AID 2012;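 active means 50% or more with normal probe brightness, or confirmed in later tests; inconclusive means above 50% with abnormal brightness, or retests that disagree; inactive means below 50% or failed in later tests; about a fifth of its hits are not listed in these tables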;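 further: calls also rest on retests at 20 µM and on dose response follow-up; 0% = protein and probe with vehicle and 100% = probe without protein; strong numbers were not always called active; many hits fall short of the cut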
# Rce1 inhib = blocks yeast Ras-converting enzyme; Q03530; yeast membranes, quenched prenylated peptide cleavage fluorescence; calls only; 290,000 tested, 0.27% active;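 active means fall in fluorescence gain of 50% or more versus controls, with final raw signal at or below 3038400; inconclusive means same 50% fall but final raw signal above 3038400; inactive means fall in fluorescence gain under 50%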;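 further: plate controls were neutral control wells for no effect and wells lacking membranes for full effect; tested at 10 µM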
# Target sequence (Q03530 whole entry, looked up): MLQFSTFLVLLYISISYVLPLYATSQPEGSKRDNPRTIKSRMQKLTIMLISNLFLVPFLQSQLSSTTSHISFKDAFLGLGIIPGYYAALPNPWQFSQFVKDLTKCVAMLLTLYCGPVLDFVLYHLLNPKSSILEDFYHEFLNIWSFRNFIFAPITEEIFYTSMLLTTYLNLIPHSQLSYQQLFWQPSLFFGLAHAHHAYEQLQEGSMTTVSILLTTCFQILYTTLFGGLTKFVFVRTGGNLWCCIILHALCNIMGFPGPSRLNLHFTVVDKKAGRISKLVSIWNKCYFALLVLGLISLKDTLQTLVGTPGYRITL
# eIF4H FP inh retest = second read-out of eIF4H FP inh, no call of its own (marks repeat the call); inhibition, %; compound at 20 µM; confirmation average;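 mean of two retest wells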
# PABP polyA inh retest = further read-out of PABP polyA inh, marked with its call; inhibition, %; compound at 20 µM; confirmation repeats;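 mean of two retest wells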
# MT1-MMP act inh RFP = second read-out of MT1-MMP act inh, no call of its own (marks repeat the call); RFP signal change, %; measured here: RFP expression control read;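 0 = vehicle wells; hits needed this value within 50% of zero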
# * marks the source's active call; other numbers are inactive results; i = inactive; ? = inconclusive; . = no result given. Compounds as they come; overall some 2.9% were active at least once.
SMILES,HIV Env fusion,Yeast UUG start,CSC inhib,MT1-MMP act inh,MT1-MMP act inh RFP,PABP polyA inh,eIF4H FP inh,Rce1 inhib,others
CCCC1CC(C)(C(=O)Cn2[nH]c(=O)ccc2=O)OC1=O (stereo not given),-1,-37,-6,2,10,7,4,i,
O=S(=O)(c1ccccc1)N1N=C(c2ccc(Br)cc2)CC1c1ccco1 (stereo not given),11,-20,2,-10,-14,-5,-16,i,
COc1ccc(O)c(C(=O)c2coc(=N)c(C(=O)Nc3ccc(SC(F)F)cc3)c2)c1,1,-22,2,-77,-11,2,-1,i,
CC(C)c1ccc2nc3sc(C(=O)N4CCc5ccccc5C4)c(N)c3cc2c1,-31,-9,.,-7,-2,9,-2,i,
Cc1ccc(C(C(=O)NC2CCCC2)N2CCCC(C)C2)cc1 (stereo not given),?,-22,13,-1,3,-6,-5,i,
CC1CC(C)CN(C(=O)CCS(=O)(=O)c2ccc3c(c2)NC(=O)CS3)C1 (stereo not given),-26,-10,-5,-8,0,1,0,i,
CCC(C(=O)NC(C)(C)C)N(Cc1ccccc1Cl)C(=O)c1snc(C(N)=O)c1N (stereo not given),7,-7,-22,-6,-2,-1,5,i,
OCCN1CCN(C(=S)Nc2ccccc2)CC1,-16,-4,-9,0,4,-4,0,i,
CCC/C=C/c1ccc(CN2C(C)C(=O)N(Cc3cn(CC4CCCCC4)nn3)CCS2(=O)=O)cc1 (stereo not given),2,-2,.,4,-5,.,.,.,
O=C(c1cccc2ccccc12)C1CCCN(C(=O)CCCn2cncn2)C1 (stereo not given),23,-26,8,2,4,-7,1,i,
Cc1ccc(NS(=O)(=O)c2cc([N+](=O)[O-])ccc2NNC(=S)Nc2cc(C)ccc2C)c(C)c1,50,-24,80*,-23,-34,-2,9,i,
CCOC(=O)c1cccc(NC(=O)CSc2nnnn2C)c1,-18,-7,6,1,2,-15,-6,i,
CCc1nc(C)ccc1OC(=O)C12CC3CC(CC(C3)C1)C2,.,.,-12,-12,0,12,-6,i,
O=C(NCC(=O)N1CCCCC1)c1ccc2ccccc2c1,-9,-7,2,2,0,-4,4,.,
CC(=O)c1ccc(-c2cccc3nccn23)cc1,-34,-13,.,-4,0,.,.,.,
CC(C)C1CC(CCN)(c2ccccc2)CCO1 (stereo not given),-6,-15,0,3,4,9,12,i,
CC(C)CC1(C)NC(=O)N(CC(=O)NC(=O)Nc2ccc3c(c2)OCCO3)C1=O (stereo not given),.,13,-12,-3,0,-8,-2,i,
COCCNc1oc(/C=C/c2cccs2)nc1S(=O)(=O)c1ccccc1,-4,-10,.,-3,-7,.,.,.,
O=C(C1CCCCC1)N1C[C@H](n2cc(-c3ccc(F)cc3)nn2)[C@@H](O)C[C@@H]1c1ccc(Cl)cc1,-15,-4,.,-3,-6,.,.,.,
CC(=O)c1cccc(NC(=O)COC(=O)c2ccc3c(c2)OCO3)c1,.,-15,3,1,2,.,.,.,
COc1ccc2[nH]c(C(=O)NCCN3CCCCC3)cc2c1,.,.,-1,.,.,10,4,i,
COc1cc(C(=O)NCC(c2cccs2)N2CCOCC2)ccc1OCc1ccccc1 (stereo not given),-5,-4,.,-4,-1,.,.,.,
O=C(O)C1C2C=CC(O2)C1C(=O)NCc1ccccc1Br (stereo not given),-19,-12,.,3,5,14,0,i,
COc1cccc(N2CC(C(=O)NC3CCCCC3)CC2=O)c1 (stereo not given),.,-20,-11,2,3,-6,-6,i,
CCCCCCCSc1nsc(N)n1,-7,-25,25,0,-1,-2,-9,i,

# Compounds from the list above that contain bromine, in the order listed:
SMILES,HIV Env fusion,Yeast UUG start,CSC inhib,MT1-MMP act inh,MT1-MMP act inh RFP,PABP polyA inh,eIF4H FP inh,Rce1 inhib,others
O=S(=O)(c1ccccc1)N1N=C(c2ccc(Br)cc2)CC1c1ccco1 (stereo not given),11,-20,2,-10,-14,-5,-16,i,
O=C(O)C1C2C=CC(O2)C1C(=O)NCc1ccccc1Br (stereo not given),-19,-12,.,3,5,14,0,i,

# The results go on:
SMILES,HIV Env fusion,Yeast UUG start,CSC inhib,MT1-MMP act inh,MT1-MMP act inh RFP,PABP polyA inh,eIF4H FP inh,Rce1 inhib,others
COC(=O)c1ccccc1OS(=O)(=O)N(C)C,3,.,-4,3,-4,13,1,i,
CCC(=O)Nc1c(C(=O)N2CCN(c3ccccn3)CC2)cnn1-c1ccc(Cl)cc1,.,.,-1,2,2,-4,-7,i,
CCN(CC)CCCN=C1N[C@@H](c2cccc(F)c2)C(C(=O)OC)=C(C)N1Cc1ccccc1,-42,3,24,.,.,.,.,.,
CCC(C)n1c(=O)c2sccc2n2c(CCCC(=O)N3CCC(C(N)=O)CC3)nnc12 (stereo not given),-5,.,-15,-5,1,-3,3,i,
CC(CCc1ccccc1)NC(=O)c1ccc(Br)cc1 (stereo not given),4,-12,-1,-3,-4,6,2,i,
COc1ccc(O)c(/C=N/NC(=O)CCC(=O)Nc2ccc(F)cc2)c1,13,-4,29,9,4,-1,12,i,
CCCNC(=O)c1onc(CSc2nc3ccccc3[nH]2)c1C(=O)NCCC,0,-33,-14,0,0,-2,-4,i,
O=C(CCNC(=O)c1ccc([N+](=O)[O-])cc1)NC1CCCc2ccccc21 (stereo not given),8,-14,.,4,2,.,.,.,
O=C(C[n+]1cccc2ccccc21)c1ccc([N+](=O)[O-])cc1,-6,-4,-10,-26,0,6,8,i,
CC1(C)Cc2c(cnn2-c2ccc(F)cc2)C(NC(=O)C2CCC2)C1 (stereo not given),27,-5,5,3,-3,0,-4,i,
Cc1ccc(CNC(=O)CN(C(=O)C2(C)CC(=O)N=C3C=CC=CN32)c2cc(C)ccc2C)cc1 (stereo not given),-7,-15,-8,4,7,-12,0,?,
CCCc1nc2oc3cc(OC)ccc3c(=O)c2c(=O)n1CCc1ccccc1,-5,.,16,-2,-1,-5,-10,i,
CC1CCN(CCCNC(=O)c2ccc(N3CCCC3=O)cc2)CC1,-6,-7,0,0,6,-7,1,i,
Nc1ncnc2c1ncn2[C@@H]1O[C@H](C(=O)N2CCCN(Cc3ccccc3F)CC2)[C@@H](O)[C@H]1O,18,-7,.,0,-1,.,.,.,
COc1cc(-n2c(=O)c3ccccc3n(CC(=O)c3ccccc3)c2=O)cc(OC)c1OC,13,.,-14,-1,0,-12,2,i,
Cc1ccc(OC(=O)c2cc3ccccc3o2)cc1,.,.,8,6,6,-10,-12,i,
CC(C)c1ccc(OC(=O)c2cccc(S(=O)(=O)N3CCN(C)CC3)c2)cc1,14,-2,-9,0,-3,.,.,i,
CCOc1c(S(=O)(=O)NC2CC(C)(C)NC(C)(C)C2)ccc(Cl)c1Cl,11,2,3,-3,-1,-6,-3,i,
COc1cc(OC)cc(C(=O)N[C@H](C(=O)Nc2nnc(C3CC3)s2)C(C)C)c1,-32,-1,.,-2,-2,8,1,i,
COc1ccc(C(=O)Nc2c3c(nn2-c2ccc(Cl)cc2)CS(=O)(=O)C3)cc1,7,-4,8,-1,-4,-3,-9,i,
COc1ccc(-n2c(=S)[nH]c3cc(C(=O)N4CCN(c5ccccc5)CC4)ccc3c2=O)c(OC)c1,0,-19,-17,7,0,3,-7,i,
Cc1cccc(Nc2nc(NCCCN3CCOCC3)nc(N)c2[N+](=O)[O-])c1,.,6,6,-7,-5,3,-13,i,
O=S(=O)(c1ccc(F)cc1)N1CCN(C(=S)NCCc2ccccc2)CC1,.,-13,-1,-1,-2,3,-6,i,
CCOC(=O)COc1ccc(N)cc1CC(NC(C)=O)(C(=O)OCC)C(=O)OCC,.,-4,-10,-9,-3,61,-10,i,eIF4H FP inh retest=5;PABP polyA inh retest=-4
Cc1nc(CCNC(=O)CC2C(=O)NCCN2Cc2ccc(F)cc2)sc1C (stereo not given),3,.,-13,-16,-4,13,32,i,

# More results follow.
SMILES,HIV Env fusion,Yeast UUG start,CSC inhib,MT1-MMP act inh,MT1-MMP act inh RFP,PABP polyA inh,eIF4H FP inh,Rce1 inhib,others
CC(C)Sc1nc2c(cnn2-c2ccc(F)cc2)c(=O)[nH]1,17,-5,-18,-1,-3,4,8,i,
COC(=O)Cc1c(C)nc(SCc2ccccc2)[nH]c1=O,-74,-10,-19,1,2,-10,-11,i,
O=C(c1cc2ccccc2o1)N(C1CC1)C1(C(=O)Nc2ccccc2)CCCC1,6,-5,-3,-5,-11,-1,-10,i,
O=C(CSc1nc2cc(Cl)c(Cl)cc2[nH]1)c1ccc2c(c1)OCO2,27,-9,-2,2,4,0,4,i,
CCCCn1c(=O)[nH]c(=O)c2c1nc(-c1ccccc1F)n2Cc1ccccc1OC,21,.,16,1,-4,-4,11,i,
Cc1cccc(OCC(=O)Nc2ccc3c(c2)nc(CCN2CCN(c4ccccn4)CC2)n3C)c1,13,-17,-1,0,-21,1,-8,i,
Cc1cc(C)nc(SC2CC(=O)N(c3ccc(Cl)cc3)C2=O)n1 (stereo not given),5,-9,-11,4,-1,4,-9,.,
Cc1ccc(SC(C)C(=O)Nc2ccccc2-c2ccccc2)cc1 (stereo not given),17,-8,27,0,-5,10,-7,i,
COc1cc(NC(=O)COc2ccc(Br)cc2)ccc1NC(=O)C(C)C,14,.,-5,7,8,1,2,i,
COc1ccc(CC(=O)Nc2ccc(N3CCCCC3)cc2)cc1,-2,4,-21,2,-8,11,-2,.,
CC(C)c1cccc(C(C)C)c1OC(=O)NC(=O)c1c(F)cccc1F,26,-4,6,-6,-3,-2,7,i,
CC(OC(=O)[C@@H]1CCCN1C(=O)c1cccs1)C(=O)Nc1cccc([N+](=O)[O-])c1 (stereo not given in full),.,-12,-2,1,1,.,.,.,
O=C(CSCc1ccc(F)cc1)N1CCN(c2ccccc2)CC1,-2,-3,2,7,4,9,-7,i,
Cc1ccc2c(c1)/C(=C/c1ccco1)C(=O)N2,-19,.,-1,-2,-2,24,2,i,
C[C@@H]1CN([C@@H](C)CO)C(=O)c2ccccc2-c2ccccc2CO[C@@H]1CN(C)S(=O)(=O)c1ccc(C(F)(F)F)cc1,-19,-10,.,-8,-8,.,.,.,
O=C(COC(=O)Cc1ccc(Cl)c(Cl)c1)Nc1ccc2[nH]c(=O)[nH]c2c1,6,-8,-6,1,1,.,.,.,
NC(=O)c1ccc(C2SCC(=O)N2CCc2ccccc2)cc1 (stereo not given),-9,-13,-8,-3,-3,.,.,.,

# Five entries drawn at random from the list so far, as already listed:
SMILES,HIV Env fusion,Yeast UUG start,CSC inhib,MT1-MMP act inh,MT1-MMP act inh RFP,PABP polyA inh,eIF4H FP inh,Rce1 inhib,others
O=C(COC(=O)Cc1ccc(Cl)c(Cl)c1)Nc1ccc2[nH]c(=O)[nH]c2c1,6,-8,-6,1,1,.,.,.,
COc1cc(NC(=O)COc2ccc(Br)cc2)ccc1NC(=O)C(C)C,14,.,-5,7,8,1,2,i,
Cc1ccc(SC(C)C(=O)Nc2ccccc2-c2ccccc2)cc1 (stereo not given),17,-8,27,0,-5,10,-7,i,
Cc1ccc2c(c1)/C(=C/c1ccco1)C(=O)N2,-19,.,-1,-2,-2,24,2,i,
COc1ccc(CC(=O)Nc2ccc(N3CCCCC3)cc2)cc1,-2,4,-21,2,-8,11,-2,.,
